TRPML1 inh: qHTS for Inhibitors of the Human Mucolipin Transient Receptor Potential 1 (TRPML1). Mucolipin-1 (Homo sapiens), Q9GZU1. TRPML1-inducible cells, Ca2+ dye fluorescence, FDSS; hits give low values; inhibition of EC80 agonist-evoked calcium signal. activity change, negative = inhibition, % (no concentration beside the values). hit rate 0.02% among 390,000. AID 624415, 2012; in the data active means activity change below about -50%; inconclusive means about -30% to -50%; inactive means above about -30%;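 also: stimulus is agonist 54-4 at its EC80 concentration; % is scaled to controls: 0 for no effect and ±100 for the full control effect; compound concentration not given in the record; the text of the record puts the active cut at -80%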
Target sequence (Q9GZU1 whole entry, looked up): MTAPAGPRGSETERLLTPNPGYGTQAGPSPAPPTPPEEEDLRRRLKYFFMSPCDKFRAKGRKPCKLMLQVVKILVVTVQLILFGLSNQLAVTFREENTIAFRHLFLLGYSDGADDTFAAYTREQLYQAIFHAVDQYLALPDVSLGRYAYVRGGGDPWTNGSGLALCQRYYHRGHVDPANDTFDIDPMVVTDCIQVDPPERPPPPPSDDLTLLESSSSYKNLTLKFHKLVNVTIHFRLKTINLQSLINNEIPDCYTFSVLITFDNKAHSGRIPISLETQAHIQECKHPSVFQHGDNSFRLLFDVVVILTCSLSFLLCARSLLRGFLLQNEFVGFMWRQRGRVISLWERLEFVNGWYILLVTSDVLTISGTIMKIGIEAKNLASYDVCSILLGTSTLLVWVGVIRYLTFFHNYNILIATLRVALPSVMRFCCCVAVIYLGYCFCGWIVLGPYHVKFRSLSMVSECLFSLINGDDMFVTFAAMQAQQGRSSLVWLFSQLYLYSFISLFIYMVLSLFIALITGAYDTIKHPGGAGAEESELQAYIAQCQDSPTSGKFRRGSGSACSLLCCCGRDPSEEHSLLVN
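Tet-induced TRPML1-DL cells loaded with Ca8 no-wash calcium dye were read kinetically on FDSS. Compound addition was followed by EC80 agonist 54-4 (4 uM final); inhibition was read over 110 s.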
ClpP mod: qHTS Assay for Activators of ClpP; Potency, µM (titrated, usually from 57.5 µM), inactives show at the top dose activity change, negative = active; AID 651965, 2013; purified B. subtilis ClpP, FRET peptide cleavage, 20 min; hit rate 1.9% among 340,000; ATP-dependent Clp protease proteolytic subunit (Bacillus subtilis (strain 168)), P80244; active = well fitted falling curve with a large enough effect; inconclusive = small, poorly fitted or top-dose-only effect; inactive = no such curve, though single readings can be large or run the other way; also: potency is read from the fitted curve at half-maximal effect; the source files actives as falling curves though it sought activators and does not explain the sign; nearly all actives have a fitted effect of over 65% in size; many hits overshoot -100%
Target sequence (P80244 whole entry, looked up): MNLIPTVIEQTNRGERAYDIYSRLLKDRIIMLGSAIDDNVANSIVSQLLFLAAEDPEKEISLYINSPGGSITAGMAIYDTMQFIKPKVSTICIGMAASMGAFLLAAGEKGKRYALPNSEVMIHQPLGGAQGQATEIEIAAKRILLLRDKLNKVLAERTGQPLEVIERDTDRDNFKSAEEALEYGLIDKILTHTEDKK
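FRET quenching reversal measured ClpP activation: 10 microg/mL B. subtilis ClpP at pH 8 with the FRET-FV decapeptide, read at 430 nm after 320 nm excitation. The 20-min minus 0-min signal was scaled between DMSO/no-enzyme wells and ADEP (5.8 microM final).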
TRPV1 potentiator: HTS Assay for Compounds that Act as Potentiators of the Vanilloid Receptor 1; Transient receptor potential cation channel subfamily V member 1 (Homo sapiens), Q8NER1; TRPV1-expressing cells, Fluo-8 calcium influx, capsaicin EC20 potentiation; host cell line not named in the record; control for the full effect not named in the record; potentiation, % at 8.33 µM; hit rate 0.02% among 320,000; AID 540277, 2011; active means potentiation above 80%; inconclusive means 30% to 80%; inactive means below 30%; also: 0% is about no effect
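TRPV1-expressing cells were cultured overnight at 35.5C and loaded with Fluo-8 calcium dye for 40 to 90 min at room temperature. After a 10 s baseline, compound was added and calcium influx was read kinetically for 3 min (ex 480/em 520 nm).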
Menin MLL FP FL: qHTS Assay for Inhibitors Targeting the Menin-MLL Interaction in MLL Related Leukemias: Competition With Fluorescein Labeled MLL-derived Peptide; Fluorescence polarization, fluorescein-MLL peptide displacement from menin; FP activity change, % at 61.4 µM; 290,000 tested, under 10 active; inconclusive = falling polarisation curve, or a change in total fluorescence; inactive = total fluorescence flat and polarisation flat or rising; no compound was filed as active; the % refers to the polarisation; negative = inhibition;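 also: % of control where 0% means no effect; inhibitors lower the polarisation; unlabelled MLL peptide was the positive control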
PINK1 expr mod: A Quantitative High throughput Screen to Identify Chemical Modulators of PINK1 Expression. Potency, µM (titrated, usually from 76.6 µM), without a hit: at the top dose activation (PINK1 increase), hits mostly activators. hit rate 0.2% among 410,000. PINK1 immunofluorescence, high-content cytometry, 24 h; active = well fitted activation curve with a large enough effect; inconclusive = small, poorly fitted or top-dose-only effect; inactive = flat fitted curve, though single readings scatter; cell line not stated here;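 also: potency is read from the fitted curve at half-maximal effect; % of control where 0% means no effect; nearly all actives have a fitted effect of over 65% in size; a mitochondrial uncoupler was the plate control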
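Fluorescence from anti-PINK1 antibody, together with nuclear and cell stains, was scanned on a laser-scanning cytometer. Before staining, stable-line cells were incubated 24 hours with compounds at 5 concentrations; primary antibody 12 h at 10 degrees C.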
Sfp PPTase inh: qHTS Assay for Inhibitors of Bacillus subtilis Sfp phosphopantetheinyl transferase (PPTase) | 4'-phosphopantetheinyl transferase ffp (Bacillus subtilis), Q9F4F7 | Biochemical Sfp PPTase activity, qHTS | Potency, µM, inactives show max response, negative = inhibition, hits mostly inhibitors | hit rate 3.5% among 310,000; active = well fitted inhibition curve with a large enough effect; inconclusive = small, poorly fitted or top-dose-only effect, or another doubt; inactive = no such curve, though single readings can be large or run the other way;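 also: the enzyme is Sfp with the accession as filed and its product quenches rhodamine fluorescence; potency is read from the fitted curve at half-maximal effect; 0% = enzyme reaction without inhibitor and -100% = no enzyme wells; top concentration of the series not given in the record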
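Compounds were incubated with enzyme (final 15 nM) for 15 min at room temperature before substrate addition started the reaction. Fluorescence at 525 nm excitation, 598 nm emission was recorded immediately and after 30 minutes.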
TRPML1 agonist: qHTS for Agonists of the Human Mucolipin Transient Receptor Potential 1 (TRPML1); Mucolipin-1 (Homo sapiens), Q9GZU1; AID 624414, 2012; TRPML1-expressing cells, Ca2+ dye fluorescence, FDSS; host cell line not named in the record; reference of the full effect not given here; activation, % (concentration not given with the values); hit rate 0.12% among 410,000; in the data active = activation above about 50%; inconclusive = about 30% to 50%; inactive = below about 30%; also: 0% is about no effect; the text of the record puts the active cut at 80%
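Calcium fluorescence on an FDSS kinetic reader gave the read-out. Tet-induced TRPML1-DL cells were plated overnight, dye-loaded (Ca8 with quencher, 45-90 min, room temperature, dark), then read 110 s after compound addition, and again 110 s after 4uM final 54-4 (EC80).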
Numbers without * were called inactive; [ ] = remark or other dose.

What do the screens show for `O=C1c2ccc(-c3ccc4c(c3)C(=O)N(CCCO)C4=O)cc2C(=O)N1CCCO`?
TRPML1 inh: -3.2; ClpP mod: 4.0%; TRPV1 potentiator: 0.8; Menin MLL FP FL: -0.8; PINK1 expr mod: 1.5%; Sfp PPTase inh: 2.2%; TRPML1 agonist: 4.1

What do the screens show for `Cc1ccc(NC(=O)c2cncc(Br)c2)c(O)c1`?
TRPML1 inh: -2.7; ClpP mod: -2.3%; TRPV1 potentiator: -0.9; Menin MLL FP FL: -1.7; PINK1 expr mod: 5.2%; Sfp PPTase inh: 14.1%; TRPML1 agonist: -1.3

Results for OC(c1ccccc1)(c1nc(-c2ccc(Cl)cc2)cs1)C(F)(F)F (configuration not stated) ?
ClpP mod: 0.2%; PINK1 expr mod: 0.0%; TRPML1 agonist: 0.2

What do the screens show for `Cc1noc(C)c1COC(=O)CCCc1c[nH]c2ccccc12`?
TRPML1 inh: -12.5; ClpP mod: -9.4%; TRPV1 potentiator: 0.4; Menin MLL FP FL: 4.8; PINK1 expr mod: -1.5%; Sfp PPTase inh: 50.1µM*; TRPML1 agonist: 2.1

How did O=C(c1ccccc1)N1CCN(C2CCCCC2)CC1 do in these assays?
TRPML1 inh: 1.7; ClpP mod: -0.3%; TRPV1 potentiator: -5.0; Menin MLL FP FL: 0.3; PINK1 expr mod: -1.0%; Sfp PPTase inh: inconclusive; TRPML1 agonist: -1.0

Results for CCn1c(SCC(=O)Nc2cc(C)on2)nnc1-c1cccc(C)c1 ?
TRPML1 inh: -4.3; TRPV1 potentiator: 5.3; Menin MLL FP FL: 6.2; PINK1 expr mod: 1.2%; Sfp PPTase inh: 13.6%; TRPML1 agonist: 1.1

What do the screens show for `Nc1ncc(-c2ccc(-c3ccccc3)cc2F)cc1-c1ccccc1F`?
ClpP mod: 5.0%; PINK1 expr mod: -0.2%; TRPML1 agonist: -0.2

What do the screens show for `CCOc1ccc(NC(=O)Cn2c(=O)oc3cc(S(=O)(=O)N4CCC(C)CC4)ccc32)cc1`?
TRPML1 inh: 3.2; ClpP mod: -1.4%; PINK1 expr mod: 13.2%; TRPML1 agonist: 0.0

How did Cc1c(F)cccc1NC(=O)CSCC(=O)Nc1ccccc1 do in these assays?
TRPML1 inh: -55.3*; ClpP mod: -0.4%; TRPV1 potentiator: -3.6; Menin MLL FP FL: -1.0; PINK1 expr mod: -2.8%; Sfp PPTase inh: 14.7%; TRPML1 agonist: 1.0

What do the screens show for `Cc1ccsc1CN1CCN(c2ccccn2)CC1`?
TRPML1 inh: -2.5; ClpP mod: -0.7%; TRPV1 potentiator: -22.1; Menin MLL FP FL: 1.9; PINK1 expr mod: 8.1%[38.3 µM]; Sfp PPTase inh: -11.4%; TRPML1 agonist: -0.7

Results for Cc1cc(-c2ccncc2)n2ncc(-c3ccccc3)c2n1 ?
TRPML1 inh: -13.0; ClpP mod: -1.2%; PINK1 expr mod: 2.1%; TRPML1 agonist: 1.2

What do the screens show for `O=C(c1ccc(F)cc1)N1CCN(c2cc(=O)[nH]nc2-c2ccccc2)CC1`?
TRPML1 inh: 15.3; ClpP mod: -0.7%; Menin MLL FP FL: -1.5; PINK1 expr mod: 0.1%; Sfp PPTase inh: 2.0%; TRPML1 agonist: 0.4

Results for CC(=O)c1cc(CN2CCN(CC=C(C)C)C(CCO)C2)cs1 (configuration not stated) ?
TRPML1 inh: -4.9; TRPV1 potentiator: 8.5; Menin MLL FP FL: -0.4; PINK1 expr mod: 0.4%; Sfp PPTase inh: 19.7%; TRPML1 agonist: -0.4

Results for O=C(Oc1nsnc1N1CCOCC1)N1CCOCC1 ?
TRPML1 inh: -2.5; ClpP mod: 0.2%; TRPV1 potentiator: -5.4; Menin MLL FP FL: 4.8; Sfp PPTase inh: -0.7%; TRPML1 agonist: -0.1

Results for O=C(c1cccn(Cc2ccc(C(F)(F)F)cc2)c1=O)N1CCOCC1 ?
TRPML1 inh: 8.3; TRPV1 potentiator: 4.6; Menin MLL FP FL: 2.4; PINK1 expr mod: -1.3%; Sfp PPTase inh: 5.9%; TRPML1 agonist: 1.7

What do the screens show for `COc1ccc2[nH]c(=O)c(CN(C)C(=O)C3CCCCC3)cc2c1`?
TRPML1 inh: -9.5; ClpP mod: 28.2µM*; TRPV1 potentiator: -8.8; Menin MLL FP FL: 4.0; PINK1 expr mod: -0.8%; Sfp PPTase inh: -19.0%; TRPML1 agonist: -0.7

How did CN(C(=O)c1cccc(NC(=O)Cc2cccc([N+](=O)[O-])c2)c1)C1CC1 do in these assays?
TRPML1 inh: 18.2; ClpP mod: 1.6%; PINK1 expr mod: 0.1%; TRPML1 agonist: -0.2

What do the screens show for `CCc1ccc(S(=O)(=O)Nc2ccc3c(c2)n(C)c(=O)c(=O)n3C)cc1`?
TRPML1 inh: 1.5; ClpP mod: 0.0%; PINK1 expr mod: 0.1%; TRPML1 agonist: 1.0

Results for Cc1ccc(C(=O)Nc2nc3ccc(S(=O)(=O)N4CCCC4)cc3s2)cc1 ?
TRPML1 inh: 14.5; ClpP mod: -2.2%; PINK1 expr mod: -0.5%; TRPML1 agonist: 0.7

How did CC(C)N1C(=O)S/C(=C/c2ccc(Sc3nc4ccccc4[nH]3)o2)C1=O do in these assays?
TRPML1 inh: inconclusive; ClpP mod: -3.0%; TRPV1 potentiator: -0.4; Menin MLL FP FL: inconclusive; PINK1 expr mod: inconclusive; Sfp PPTase inh: 6.9%; TRPML1 agonist: 24.4

Results for CCCc1nc2ccccc2c(NC(=O)CN(CC)CC)c1CC ?
TRPML1 inh: -6.7; TRPV1 potentiator: 0.0; Menin MLL FP FL: -4.1; PINK1 expr mod: -1.1%; Sfp PPTase inh: 56.2µM*; TRPML1 agonist: 1.0

What do the screens show for `CCc1ccc(OC(=O)c2cncc(Br)c2)cc1`?
TRPML1 inh: 2.2; ClpP mod: 0.7%; TRPV1 potentiator: -26.9; Menin MLL FP FL: -7.4; PINK1 expr mod: 9.6%; Sfp PPTase inh: -3.2%; TRPML1 agonist: 0.2

What do the screens show for `Cn1c(=O)c(NCCc2ccccc2)c2c3c(cccc31)C(=O)c1ccccc1-2`?
TRPML1 inh: -11.4; ClpP mod: 0.1%; TRPV1 potentiator: 22.6; Menin MLL FP FL: inconclusive; PINK1 expr mod: 3.0%; Sfp PPTase inh: -2.6%; TRPML1 agonist: 104.4*

How did COc1ccc(NC(=O)c2ccco2)cc1NC(=O)c1ccccc1 do in these assays?
TRPML1 inh: -13.0; TRPV1 potentiator: -16.2; Menin MLL FP FL: 2.3; PINK1 expr mod: -3.6%; Sfp PPTase inh: 10.4%; TRPML1 agonist: 1.5

Results for O=Cc1[nH]c2ccccc2c1N(C(=O)CCl)c1ccc([N+](=O)[O-])cc1 ?
TRPML1 inh: 6.8; TRPV1 potentiator: 7.3; Menin MLL FP FL: 0.3; PINK1 expr mod: 1.4%; Sfp PPTase inh: -5.7%; TRPML1 agonist: 0.3

How did Cc1cc(C)c(NC(=O)CNC(=O)COC(=O)C2=COCCO2)c(C)c1 do in these assays?
TRPML1 inh: -13.8; TRPV1 potentiator: 5.7; PINK1 expr mod: 0.3%; TRPML1 agonist: 3.6

How did CCOC(=O)C1(C)CCCN(C(=O)c2ccc(F)c(Cl)c2)C1 (configuration not stated) do in these assays?
TRPML1 inh: 3.3; ClpP mod: -9.6%; PINK1 expr mod: -0.1%; TRPML1 agonist: -0.7

Results for CCCCC1CCCC12NC(=O)NC2=O (configuration not stated) ?
TRPML1 inh: -17.9; TRPV1 potentiator: 5.9; Menin MLL FP FL: 0.0; PINK1 expr mod: -0.9%; Sfp PPTase inh: 13.1%; TRPML1 agonist: 0.5

What do the screens show for `O=C(Nc1ccccc1)SC1CCCCC1`?
TRPML1 inh: 6.9; ClpP mod: -2.3%; PINK1 expr mod: 12.5%; TRPML1 agonist: 1.5

Results for CCOc1ccc(-n2c(SCC(=O)N3CCC(C)CC3)nc3c([nH]c4ccccc43)c2=O)cc1 ?
TRPML1 inh: 13.9; ClpP mod: 0.9%; PINK1 expr mod: -3.8%; TRPML1 agonist: 0.6

How did NC(=O)c1ccc(NC(=O)c2ccc(CN3CCOCC3)cc2)cc1 do in these assays?
TRPML1 inh: 36.3; ClpP mod: -1.2%; TRPV1 potentiator: 10.8; Menin MLL FP FL: 0.7; PINK1 expr mod: 1.4%; Sfp PPTase inh: 9.5%; TRPML1 agonist: -0.8

Results for c1csc(Cc2nc3ccccc3[nH]2)c1 ?
TRPML1 inh: 7.3; ClpP mod: 0.3%; TRPV1 potentiator: 14.4; Menin MLL FP FL: 4.3; PINK1 expr mod: -3.4%[38.3 µM]; Sfp PPTase inh: -2.1%; TRPML1 agonist: 0.2

Results for COc1ccc(NC(=O)Cn2c(=O)n(CCC(C)C)c(=O)c3cccnc32)cc1Cl ?
TRPML1 inh: 23.1; ClpP mod: 138.9%; PINK1 expr mod: 6.2%; TRPML1 agonist: 1.2

How did O=C(CSc1nc2c([nH]c3ccccc32)c(=O)n1-c1ccc(F)cc1)Nc1ccc2c(c1)OCCO2 do in these assays?
TRPML1 inh: -4.1; ClpP mod: 22.4µM*; PINK1 expr mod: 1.9%; TRPML1 agonist: 0.2

Results for Cc1ccc(-c2nnc(SCC(=O)NCc3ccccc3)o2)cc1 ?
TRPML1 inh: -1.8; ClpP mod: 1.4%; PINK1 expr mod: 3.5%; TRPML1 agonist: 1.1

How did N#CCCN(C(=O)CN1c2cccc3cccc(c23)S1(=O)=O)c1ccccc1 do in these assays?
TRPML1 inh: -5.4; ClpP mod: -3.6%; PINK1 expr mod: 0.3%; TRPML1 agonist: 1.1

What do the screens show for `Cc1nn(C)c(C)c1S(=O)(=O)N(CC(=O)NCCCN1CCC(C)CC1)c1ccc(C(C)C)cc1`?
TRPML1 inh: 1.6; ClpP mod: -2.7%; TRPV1 potentiator: 4.1; PINK1 expr mod: -0.6%; Sfp PPTase inh: 3.2%; TRPML1 agonist: 0.8

How did Cc1cc(C(=O)OCC(=O)NNC(=O)c2cccs2)ccc1[N+](=O)[O-] do in these assays?
TRPML1 inh: -9.9; TRPV1 potentiator: 10.1; PINK1 expr mod: 0.7%; TRPML1 agonist: -0.6
